Bioassay records as filed in PubChem BioAssay.
UUG fidelity = modulators of start codon recognition fidelity in yeast. S. cerevisiae UUG-firefly luciferase reporter, luminescence/redox ratio. activity score, % at 18.7 µM. actives 0.13% (n = 350,000). AID 602363;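 active = replicate mean at a twofold rise or more, about +100% in these data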;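 also: firefly luciferase made from a UUG start codon reports start codon fidelity; reporter light over untreated wells divided by growth signal over untreated wells; some hits fall short of that in this replicate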
CSC inhib = cancer stem cell inhibition; cancer stem cell-like cells viability, luminescence; inhibition, % at 7.5 µM; actives 1.1% (n = 300,000);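 active = mean at 75% or more and at least half the replicates too; inconclusive = mean and replicates disagree; tested in HMLE shEcad cells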;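 also: 0% = median of negative and 100% = median of positive control wells; the first replicate is given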
Rce1 inhib = yeast Ras-converting enzyme inhibition. Q03530. yeast membranes, quenched prenylated peptide cleavage fluorescence. calls only. actives 0.27% (n = 290,000);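 active = fall in fluorescence gain of 50% or more versus controls, with final raw signal at or below 3038400; inconclusive = same 50% fall but final raw signal above 3038400; inactive = fall in fluorescence gain under 50%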;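 also: plate controls were neutral control wells for no effect and wells lacking membranes for full effect; tested at 10 µM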
Target sequence (Q03530 whole entry, looked up): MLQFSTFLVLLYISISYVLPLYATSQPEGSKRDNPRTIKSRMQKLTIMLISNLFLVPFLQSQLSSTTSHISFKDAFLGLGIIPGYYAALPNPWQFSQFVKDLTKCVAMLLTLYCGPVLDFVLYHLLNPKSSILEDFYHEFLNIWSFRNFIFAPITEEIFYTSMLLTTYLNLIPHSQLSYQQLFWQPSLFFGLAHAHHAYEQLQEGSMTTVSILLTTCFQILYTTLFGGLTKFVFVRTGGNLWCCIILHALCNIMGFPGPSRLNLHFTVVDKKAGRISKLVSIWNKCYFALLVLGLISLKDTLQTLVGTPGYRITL
MT1-MMP act inh = blocks activation of human MT1-MMP; GFP/RFP ratio change, % at 20 µM; actives 0.061% (n = 360,000); HT1080 RFP-PRO-GFP cells, GFP/RFP ratio fluorescence, overnight; percent of plate control window, DMSO zero; P50281;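 active = GFP/RFP ratio change of at least 30% with cell ATP level not reduced by more than half and red fluorescence within 50% of control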; also: strong numbers were not always called active
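Compound: 20 µM single dose, 1% DMSO / System: HT1080 RFP-PRO-GFP cells / Controls: DMSO and RFP-L50D-GFP cell wells / Read-out basis: GFP/RFP fluorescence ratio / Schedule: overnight compound exposure at 37 °C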
eIF4H FP inh = inhibitors of RNA binding by human eIF4H | Q15056 | eIF4H fluorescence polarization binding assay | inhibition, % at 35 µM | actives 0.94% (n = 290,000) | AID 2012;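 active = 50% or more with normal probe brightness, or confirmed in later tests; inconclusive = above 50% with abnormal brightness, or retests that disagree; inactive = below 50% or failed in later tests; about a fifth of its hits are not listed in these tables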;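 also: calls also rest on retests at 20 µM and on dose response follow-up; 0% = protein and probe with vehicle and 100% = probe without protein; strong numbers were not always called active; many hits fall short of the cut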
PABP FP inh = blocks human PABP binding to poly(A) RNA; fluorescence polarization; inhibition, % at 35 µM; actives 1% (n = 290,000); AID 2014;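 active = 50% or more with normal probe brightness, or confirmed in later tests; inconclusive = above 50% with abnormal brightness, or retests that disagree; inactive = below 50% or failed in later tests; about a fifth of its hits are not listed in these tables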;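 also: calls also rest on retests at 20 µM and on dose response follow-up; controls were probe without protein and protein plus probe with vehicle; some compounds called inactive have numbers as strong as hits; many hits fall short of the cut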
HIV Env fusion = HIV envelope-mediated fusion inhibition; HeLa-JRFL Env/CEM21 cell fusion, luciferase; inhibition, % at 12.3 µM; actives 1.1% (n = 360,000); AID 651610;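 active = mean replicate inhibition score of at least 50 and every replicate individually at or above 50; inconclusive = only one of the two criteria met; inactive = mean below 50 and not all replicates reaching 50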;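 also: 0% = plate neutral controls and 100% = maraviroc near 300 nM; one replicate is shown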
MT1-MMP act inh RFP = second read-out of MT1-MMP act inh, no call of its own (marks repeat the call); RFP signal change, %; measured here: RFP expression control read;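 0 = vehicle wells; hits needed this value within 50% of zero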
An asterisk follows results filed as active. Some of the compounds tested. The share of hits here may be higher or lower than overall.

For COC(=O)N1C(=O)[C@](c2ccsc2)(C(C)C)N1C(=O)OC the results were UUG fidelity -10, CSC inhib 9, Rce1 inhib inactive, MT1-MMP act inh -3, eIF4H FP inh -6, PABP FP inh -10, HIV Env fusion -19 and MT1-MMP act inh RFP 2.
For Cc1cnc(C(=O)OCC(=O)Nc2ccc(Cl)cn2)cn1 the results were UUG fidelity -22, CSC inhib 13, Rce1 inhib inactive, MT1-MMP act inh -4, HIV Env fusion -5 and MT1-MMP act inh RFP 3.
Screening CC(=O)Nc1ccc(NC(=O)CSc2nnc(NC(=O)c3ccccc3F)s2)cc1 returned UUG fidelity -44, MT1-MMP act inh -1, HIV Env fusion -23 and MT1-MMP act inh RFP 0.
CC(NC(=O)CCc1nnc(-c2ccc(-c3ccccc3)cc2)o1)c1nc2ccccc2[nH]1 (stereo not drawn) was read as CSC inhib -9, Rce1 inhib inactive, MT1-MMP act inh -5, eIF4H FP inh -3, PABP FP inh 2, HIV Env fusion 14 and MT1-MMP act inh RFP -7.
For O=C(CSc1nc(O)cc(=O)n1C1CCCC1)Nc1cccc(Cl)c1Cl the results were Rce1 inhib inactive, MT1-MMP act inh -1, eIF4H FP inh -5, PABP FP inh -6, HIV Env fusion -5 and MT1-MMP act inh RFP 3.
For CCOc1ccc(-c2c(C(=O)N/N=C(\C)c3ccco3)nnn2-c2nonc2N)cc1 the results were UUG fidelity -17, CSC inhib -16, Rce1 inhib inactive, MT1-MMP act inh 0, eIF4H FP inh -7, PABP FP inh -12, HIV Env fusion -1 and MT1-MMP act inh RFP 1.
For Cc1ccc(C(=O)N/C(=C/c2ccc(-c3cccc([N+](=O)[O-])c3)o2)C(=O)NCCCN(C)C)cc1 the results were UUG fidelity -2, Rce1 inhib inactive, MT1-MMP act inh -4, eIF4H FP inh -5, PABP FP inh 1, HIV Env fusion -11 and MT1-MMP act inh RFP -8.
O=C(CCNC(=O)c1ccco1)NCc1ccc(F)cc1 was read as UUG fidelity -13, CSC inhib -10, MT1-MMP act inh -1 and MT1-MMP act inh RFP -1.
O=C(c1ccco1)N1CCN(C2CC(=O)N(c3ccc4c(c3)OCO4)C2=O)CC1 (stereo not drawn) was read as UUG fidelity 0, CSC inhib -5, Rce1 inhib inactive, MT1-MMP act inh 1, eIF4H FP inh -12, PABP FP inh 10, HIV Env fusion -57 and MT1-MMP act inh RFP -1.
For Nc1ccc(-n2ccnc2)cc1 the results were CSC inhib -1, Rce1 inhib inactive, MT1-MMP act inh 1, eIF4H FP inh 2, PABP FP inh 10 and MT1-MMP act inh RFP 4.
`CC(C)C[C@H]1CN=C(N(C)C)N1CCc1cccc(F)c1` gave UUG fidelity 7, CSC inhib -14, MT1-MMP act inh 2, HIV Env fusion -23 and MT1-MMP act inh RFP 1.
Screening COc1cc(/C=N/NC(=O)C(=O)N2CCCC2)ccc1O returned UUG fidelity -20, CSC inhib -1, Rce1 inhib inactive, MT1-MMP act inh 0, eIF4H FP inh -4, PABP FP inh 2, HIV Env fusion -52 and MT1-MMP act inh RFP 1.
`CCn1c(SCC(=O)Nc2ccc(NC(=O)c3ccco3)c(OC)c2)nc2ccccc2c1=O` gave UUG fidelity -5, CSC inhib 5, Rce1 inhib inactive, MT1-MMP act inh 4, eIF4H FP inh -1, PABP FP inh -9, HIV Env fusion 35 and MT1-MMP act inh RFP 3.
For O=c1cc(N2CCN(Cc3ccccc3)CC2)[nH]c(=O)n1-c1cccc(C(F)(F)F)c1 the results were UUG fidelity 4, CSC inhib -5, Rce1 inhib inactive, MT1-MMP act inh -6, eIF4H FP inh 34, PABP FP inh -6 and MT1-MMP act inh RFP -4.
`O=C(Nc1cccc(NC(=O)c2cccs2)c1)c1ccco1` gave Rce1 inhib inactive, MT1-MMP act inh 5, eIF4H FP inh -10, PABP FP inh -5, HIV Env fusion 13 and MT1-MMP act inh RFP 4.
COC(=O)c1sccc1NC(=O)C12CC3CC(CC(C3)C1)C2 was read as CSC inhib -1, Rce1 inhib inactive, MT1-MMP act inh 3, HIV Env fusion -3 and MT1-MMP act inh RFP 11.
`Cc1ccc2sc(NC(=O)CSc3nc(C)cc(C)c3C#N)nc2c1` gave UUG fidelity -35, Rce1 inhib inactive, MT1-MMP act inh -5, eIF4H FP inh -7, PABP FP inh -9, HIV Env fusion inactive and MT1-MMP act inh RFP 5.
`O=C1Nc2ccccc2N=C(c2ccc3c(c2)OCO3)C1N(C(=O)c1ccc2ccccc2c1)C1CC1` (stereo not drawn) gave UUG fidelity -3, MT1-MMP act inh -3, HIV Env fusion 56* and MT1-MMP act inh RFP -6.
`CN(C)c1ccc(C2/C(=C(/O)c3ccc(Br)cc3)C(=O)C(=O)N2C)cc1` (stereo not drawn) gave UUG fidelity 1, CSC inhib 1, Rce1 inhib inactive, MT1-MMP act inh 1, eIF4H FP inh 0, PABP FP inh -8, HIV Env fusion 1 and MT1-MMP act inh RFP 6.
For CCc1ccccc1NC(=O)CN1CCN(CC(=O)Nc2cc(C)ccc2OC)CC1 the results were UUG fidelity -14, CSC inhib -4, Rce1 inhib inactive, MT1-MMP act inh 2, eIF4H FP inh 8, PABP FP inh 6, HIV Env fusion 10 and MT1-MMP act inh RFP -18.
CCN(Cc1cc2cccc(C)c2[nH]c1=O)C(=O)c1ccccc1OC was read as UUG fidelity -31, CSC inhib -9, Rce1 inhib inactive, MT1-MMP act inh 1, eIF4H FP inh -3, PABP FP inh -6 and MT1-MMP act inh RFP -1.
For Cc1ccc(-c2nc(N)sc2CC(=O)OCC(=O)N2C(C)CCCC2C)cc1 (stereo not drawn) the results were UUG fidelity -21, CSC inhib 27, Rce1 inhib inactive, MT1-MMP act inh -9, eIF4H FP inh 43, PABP FP inh -6, HIV Env fusion 30 and MT1-MMP act inh RFP 0.
For Cc1ccc2nc(N3CCN(C)CC3)c(C=O)c(=O)n2c1 the results were UUG fidelity -2, CSC inhib -5, Rce1 inhib inactive, MT1-MMP act inh -3, eIF4H FP inh inconclusive, PABP FP inh inconclusive, HIV Env fusion -25 and MT1-MMP act inh RFP 1.
`O=S(=O)(NC1=NCCCCC1)c1cc(F)ccc1F` gave UUG fidelity -20, CSC inhib -18, MT1-MMP act inh 5, HIV Env fusion 0 and MT1-MMP act inh RFP 9.
For COc1cc(C2CC(=O)NC(SCC(=O)Nc3ccccc3C)=C2C#N)ccc1O (stereo not drawn) the results were UUG fidelity 20, CSC inhib -12, Rce1 inhib inactive, MT1-MMP act inh 1, eIF4H FP inh -1, PABP FP inh 2 and MT1-MMP act inh RFP 1.
For COc1ccc(C(=O)NNC(=O)c2cc(C)nc3ccccc23)cc1 the results were UUG fidelity -13, MT1-MMP act inh 1, HIV Env fusion 7 and MT1-MMP act inh RFP 5.
`COc1ccc(S(=O)(=O)N(CC(=O)N/N=C/c2ccccc2C(=O)O)c2ccccc2OC)cc1` gave UUG fidelity -4, CSC inhib -7, Rce1 inhib inactive, MT1-MMP act inh -1, eIF4H FP inh -2, PABP FP inh 13, HIV Env fusion 2 and MT1-MMP act inh RFP -1.
Screening COc1ccc2oc(C(=O)Nc3cccc(S(=O)(=O)N4CCOCC4)c3)c(C)c2c1 returned UUG fidelity -13, MT1-MMP act inh 5, HIV Env fusion 28 and MT1-MMP act inh RFP -5.
C[N+](C)(CCCCCC[N+](C)(C)CCCN1C(=O)c2cccc3cccc(c23)C1=O)CCCN1C(=O)c2cccc3cccc(c23)C1=O was read as UUG fidelity 0, CSC inhib -20, MT1-MMP act inh -2 and MT1-MMP act inh RFP 6.
`Cc1ccc(C2=Nc3ccccc3N=C(c3ccco3)C2)c(O)c1` gave UUG fidelity -19, CSC inhib -3, Rce1 inhib inactive, MT1-MMP act inh 2, eIF4H FP inh 19, PABP FP inh 18 and MT1-MMP act inh RFP 3.
For CSc1ccccc1C(=O)N1CCc2ccc(NC(=O)c3ccccn3)cc2C1 the results were UUG fidelity -16, MT1-MMP act inh 1, HIV Env fusion -82 and MT1-MMP act inh RFP -24.
For CCc1cc2c3c(c(=O)oc2cc1OC(C)C(=O)O)CCCC3 (stereo not drawn) the results were UUG fidelity 0, CSC inhib -9, Rce1 inhib inactive, MT1-MMP act inh -1, eIF4H FP inh -1, PABP FP inh 4, HIV Env fusion 0 and MT1-MMP act inh RFP 4.
CCC(=O)Nc1cc(C)c(OC)c(C)c1 was read as Rce1 inhib inactive, MT1-MMP act inh 0, eIF4H FP inh -2, PABP FP inh -4, HIV Env fusion 7 and MT1-MMP act inh RFP 4.
CCOC(=O)NC(=O)COC(=O)CCCc1nc2ccccc2s1 was read as CSC inhib 8, Rce1 inhib inactive, eIF4H FP inh 4, PABP FP inh 3 and HIV Env fusion -1.
Screening O=C(COC(=O)c1ccc(F)cc1F)Nc1ccc2[nH]c(=O)[nH]c2c1 returned UUG fidelity -15, CSC inhib -12, Rce1 inhib inactive, MT1-MMP act inh -2, eIF4H FP inh 21, PABP FP inh 16, HIV Env fusion -14 and MT1-MMP act inh RFP 2.
For COc1cccc(/C=C2\SC(=S)N(CCC(=O)NNC(=O)c3ccccc3OC)C2=O)c1 the results were CSC inhib 12, Rce1 inhib inactive, MT1-MMP act inh 1, eIF4H FP inh 2, PABP FP inh 1, HIV Env fusion 18 and MT1-MMP act inh RFP 4.
Screening O=S(=O)(c1ccc(=S)[nH]c1)N1CCCCCC1 returned UUG fidelity -23, MT1-MMP act inh 1, HIV Env fusion -10 and MT1-MMP act inh RFP 1.
FC(F)(F)c1cc(-c2ccco2)nc(NCc2ccccc2)n1 was read as UUG fidelity -19, CSC inhib 2, MT1-MMP act inh -13, eIF4H FP inh 23, PABP FP inh 5, HIV Env fusion -15 and MT1-MMP act inh RFP -3.
For COc1ccc(NCc2nn(CC(=O)c3ccc(Br)cc3)c3[n+]2CCCCC3)cc1 the results were CSC inhib 0, Rce1 inhib inactive, MT1-MMP act inh -12, eIF4H FP inh -11, PABP FP inh -7, HIV Env fusion -5 and MT1-MMP act inh RFP 0.
Screening COc1ccc(C(=O)NCc2cc(C)nc3ccccc23)cc1 returned CSC inhib 29, MT1-MMP act inh 0, eIF4H FP inh -4, PABP FP inh 4, HIV Env fusion 20 and MT1-MMP act inh RFP -17.
Screening O=C(c1cc2cc(Cl)ccc2oc1=O)N1CCN(c2ccccn2)CC1 returned UUG fidelity 5, CSC inhib -3, Rce1 inhib inactive, MT1-MMP act inh 2, eIF4H FP inh -3, PABP FP inh 6, HIV Env fusion 4 and MT1-MMP act inh RFP 3.
CCOC(=O)c1cc2occc2n1CC(=O)Nc1ccc(OC)cc1OC was read as UUG fidelity -18, MT1-MMP act inh 3, eIF4H FP inh -4, PABP FP inh -2 and MT1-MMP act inh RFP 5.
Screening Cc1cc(C)cc(Cn2ncc(Cl)c(Cl)c2=O)c1 returned CSC inhib 11, Rce1 inhib inactive, eIF4H FP inh 1, PABP FP inh -5 and HIV Env fusion -15.
For COc1ccc(NC(=O)N(C2CCCCC2)C2CCN(C(C)C)CC2)c(OC)c1 the results were UUG fidelity -7, Rce1 inhib inactive, MT1-MMP act inh 5, eIF4H FP inh 14, PABP FP inh 35 and MT1-MMP act inh RFP 9.
For COCCCN1C(=O)C(O)=C(C(C)=O)C1c1cccc(F)c1 (stereo not drawn) the results were UUG fidelity -19, Rce1 inhib inactive, MT1-MMP act inh -4, eIF4H FP inh -11, PABP FP inh 32 and MT1-MMP act inh RFP -4.
`CN1C(=O)SC(Nc2ccccc2)C1=O` (stereo not drawn) gave UUG fidelity -9, CSC inhib 13, Rce1 inhib inactive, MT1-MMP act inh -4, eIF4H FP inh -12, PABP FP inh -11 and MT1-MMP act inh RFP 3.
